Rango release inh – inhibition of RanGTP-driven Rango-importin beta dissociation. O95149+P62826. Biochemical FRET Rango-importin beta, RanGTP-induced dissociation. Potency, µM (highest dose often 46.1 µM), without a hit: at the top dose activity change, negative = inhibition. 0.071% of 340,000 active; active means falling FRET ratio curve, often poorly fitted, with flat reads before Ran was added; inconclusive means other falling curves, or compound fluorescence or quenching; inactive means flat or rising ratio curve;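 further: potency means the concentration at half of the fitted maximal effect; % of control where 0% means no effect; nearly all actives have a fitted effect of over 45% in size; -100% = wells without RanGTP and RCC1; the record marks most hits as doubtful in a second field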
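Compounds sat 5 min at room temperature with 0.1 uM Rango biosensor plus 0.25 uM importin beta, then FRET pre-read. RanGTP-RCC1 (0.6 uM Ran, 2mM GTP, 0.2 uM RCC1) added for 45 min, and the CFP/YFP post-read measured blocked complex dissociation.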
GLA inh pH 4.5 – blocks human alpha-galactosidase A at pH 4.5 | P06280 | purified enzyme, 4-MU-alpha-Gal fluorescence, pH 4.5 | activity change, negative = inhibition, % at 105 µM | 230,000 tested, under 10 active; inconclusive = small, poorly fitted or top-dose-only inhibition, or a rising curve; inactive = flat fitted curve, though single readings scatter; no compound was filed as active;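 further: 0% = full activity with enzyme and -100% = basal without enzyme; dose as in the result columns while the protocol names 77 µM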
Target sequence (P06280 whole entry, looked up): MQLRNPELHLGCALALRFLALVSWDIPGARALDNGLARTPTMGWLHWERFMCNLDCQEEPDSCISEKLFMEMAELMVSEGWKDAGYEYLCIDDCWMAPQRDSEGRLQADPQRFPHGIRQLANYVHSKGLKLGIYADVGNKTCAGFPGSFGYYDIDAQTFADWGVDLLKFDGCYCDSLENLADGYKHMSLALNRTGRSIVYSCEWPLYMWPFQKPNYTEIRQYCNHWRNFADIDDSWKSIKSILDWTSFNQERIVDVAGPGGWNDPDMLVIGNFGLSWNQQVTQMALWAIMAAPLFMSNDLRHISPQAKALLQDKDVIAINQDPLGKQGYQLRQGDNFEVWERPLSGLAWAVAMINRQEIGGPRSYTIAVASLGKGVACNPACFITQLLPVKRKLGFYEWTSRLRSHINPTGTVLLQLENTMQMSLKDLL
Rango complex inh – prevents formation of the Rango-importin beta complex. Q14974. Rango CFP/YFP FRET sensor + importin beta, 45 min. Potency, µM (series often up to 92.2 µM), for the others: top-dose inhibition of complex formation. 0.031% of 340,000 active; active = rising FRET ratio curve, often small or poorly fitted; inconclusive = mostly compound fluorescence or quenching in the first reads; inactive = flat curves in all reads;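 further: potency means the concentration at half of the fitted maximal effect; 0% = DMSO wells and 100% = buffer wells lacking importin beta; nearly all actives have a fitted effect of over 15% in size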
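FRET biosensor (snurportin 1 IBB flanked by EYFP and cerulean), 50 nM, with compound 5 min, then 0.125 microM importin beta in PBS, 1 mM DTT, 0.02% Tween-20, 0.1% BSA. CFP/YFP ratio read after 45 min at room temperature; pre-read flags interference.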
miR-21 FLuc – miR-21 reporter, rising signal | HeLa miR-21 FLuc reporter, luciferase, 48 h | Potency, µM (series often up to 38.3 µM), without a hit: at the highest dose reporter change, positive = more light | 340,000 tested, under 10 active | AID 2288; active = well fitted rising curve with a large enough effect; inconclusive = small, poorly fitted or top-dose-only effect; inactive = no such curve, though single readings can be large or run the other way;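 further: % of control where 0% means no effect; miR-21 action dims this reporter so a rising signal means less miR-21 action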
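Compounds were titrated across several concentrations (up to approximately 40 uM) and incubated 48 hours with HeLa miR-21-FLuc reporter cells (miR-21 target sequence downstream of FLuc, endogenous miR-21). Readout was firefly luciferase luminescence after lytic detection reagent.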
Active calls of the source: *; ? = inconclusive; · = no result given; & = joins results of further samples; [ ] = another dose, or the depositor's remark. This is a subset. The share of hits here may be higher or lower than overall.

SMILES | Rango release inh | GLA inh pH 4.5 | Rango complex inh | miR-21 FLuc
Cc1nn(C(C)C(=O)NCCCc2ccccc2)c(=O)c2cc3occc3n12 (centres undefined) | 1% | -4 | -0.6% | -9%
CCc1ccc2c(c1)C1(C(=O)N2)N2CCCC2C(C(=O)c2ccc3ccccc3c2)C12C(=O)Nc1ccccc12 (centres undefined) | 1% | -10 | -1.0% | ?
CCN(CC)c1ccc(N2C(=O)/C(=C/c3cccs3)SC2=S)cc1 | 17% | 0 | 1.3% | 0%
Cc1ccc(S(=O)(=O)N[C@H](C(=O)NCC2CCC(C(=O)O)CC2)C(C)C)cc1 (some centres undefined) | -8% | · | -2.8% | 3%
O=C1c2ccccc2OC2(C=Cc3ccccc3O2)N1Cc1ccccc1 (centres undefined) | -3% | 3 | -0.9% | 28%
CCOC(=O)c1c(C)n(C)c2ccc(OC(=O)c3ccc(N4C(=O)CCC4=O)cc3)cc12 | 0% | 4 | -1.2% | -24%
CC1=C(C(=O)N2CCCC(N3CCN(c4ccccc4C)CC3)C2)OCCO1 (centres undefined) | -9% | · | -0.4% | -8%
O=C(C1COc2ccccc2O1)N1CCN(c2ccc(F)cc2)CC1 (centres undefined) | -13% | -4 | 2.9% | -8%
C=CCC1(CC=C)CCCN1C(=O)C1CCC(=O)N(CCc2ccc(Cl)cc2)C1 (centres undefined) | -21% | · | -4.0% | 0%
Cc1cccc(-c2nnc(SCC#N)n2C)c1 | -29% | -6 | ? | -3%
CCOC(=O)NC(=O)CSc1nc2ccccc2[nH]1 | 10% | 2 | -1.4% | -3%
S=C1N(c2ccccc2)C(c2cccc3ccccc23)N2CCCN12 (centres undefined) | 1% | -4 | -1.0% | -6%
Cc1cccc(C)c1NC(=O)COC(=O)C1Cc2ccccc2CN1C(=O)c1ccccc1 (centres undefined) | -9% | -15 | 4.6% | 0%
Cc1cccn2c(=O)c3cc(C(=O)NCc4cccnc4)c(=N)n(C(C)C)c3nc12 | ? | 20 | ? | -8%
COC(=O)c1ccc(COC(=O)c2ccc(CO)cc2)o1 | 6% | 4 | 1.2% | -4%
COCCNC(=S)N/N=C/c1ccc([N+](=O)[O-])cc1 | -7% | -2 | ? | 6%
COCCCNC(=S)Nc1ccc(OC(F)F)cc1C | -1% | 4 | -1.8% | -1%
COc1cccc(/C=N/NC(=O)c2[nH]c(C)c(C(=O)N/N=C/c3cccc(OC)c3)c2C)c1 | 1% | -11 | ? | 14%
O=C(c1ccc(N2CCN(C(=O)c3cccc(F)c3)CC2)cc1)c1cccc(F)c1 | 10% | · | ? | 12%
CC(=O)Nc1ccc(-c2sc(Nc3ccccc3)n[n+]2C)cc1 | 11% | · | -2.3% | 9%
CCCCc1cc(=O)oc2cc(O)ccc12 | ? | ? | ? | -16%
CC(=O)Nc1ccc(S(=O)(=O)Nc2ccc3[nH]c(=O)[nH]c3c2)cc1 | -1% | · | -0.6% | 0%
COc1ccc([N+](=O)[O-])cc1NC(=S)NC(NC(=O)Cc1ccc(OC)c(OC)c1)C(Cl)(Cl)Cl (centres undefined) | 2% | -4 | -1.1% | -3%
COC(=O)c1c(NC(=O)CC2SC(N)=NC2=O)sc2c1CCCC2 (centres undefined) | 7% | -5 | 3.9% | -5%
C=CCn1c(SCC(=O)c2c(N)n(CCC)c(=O)n(C)c2=O)nc2sc(CC)cc2c1=O | 0% | -3 | -2.4% | 0%
O=[N+]([O-])c1cc(Br)c(Nc2ccccc2)c([N+](=O)[O-])c1 | 2% | · | -0.4% | 20%
Cc1ccc(N(CC(=O)NCc2ccccc2)C(=O)CCC(=O)Nc2ccccn2)cc1C | -21% | · | 0.0% | 2%
COc1ccc(N2C(=O)CC(N3CCN(S(=O)(=O)c4c(C)cc(C)cc4C)CC3)C2=O)cc1 (centres undefined) | 11% | · | 0.2% | ·
O=c1nc(N/N=C/c2ccco2)cn[nH]1 | -10% | -2 | ? | -17%
Cc1nc(/C(N)=N/OC(=O)c2ccc(Cl)cc2)c(C(F)(F)F)o1 | 2% | -1 | 0.0% | -16%
Cc1nnc(NC(=O)c2nc(S(=O)(=O)Cc3ccccc3C)ncc2Cl)s1 | 5% | · | 1.9% | ?
CCn1c(-c2nn(C)cc2Cl)n[nH]c1=S | -9% | -1 | -0.8% | -9%
CCCCN(Cc1ccccc1)C(=O)CCN1C(=O)C2C3C=CC(C3)C2C1=O (centres undefined) | 10% | -10 | 0.5% | 5%
COC(=O)Cn1c(CCS(=O)(=O)c2ccc(C)c(C)c2)nc2ccccc21 | 5% | 1 | -3.1% | -4%
COC(=O)Cn1c(CN2CCN(C(=O)c3ccco3)CC2)nc2c1c(=O)n(C)c(=O)n2C | 11% | · | 1.9% | 0%
O=C(CSc1nnc(-c2ccco2)o1)c1ccc([N+](=O)[O-])cc1 | -8% | -4 | -2.0% | -4%
CCOc1ccc(CNC(=O)c2ccc3nc(N4CCOCC4)sc3c2)cc1 | -6% | · | -3.8% | -9%
O=C(O)CCCn1cc(NC(=O)COc2cc(F)ccc2[N+](=O)[O-])cn1 | 11% | 2 | -0.3% | 13%
CC(C(=O)NC1C=CS(=O)(=O)C1)N1C(=O)/C(=C/c2cccc(Cl)c2)SC1=S (centres undefined) | 1% | · | 0.2% | 0%
CC(=O)Nc1ccc(S(=O)(=O)NNC(=O)c2sc(=S)n(C)c2C)cc1 | 1% | -1 | ? | 1%
CN(C)c1nnnn1Cc1ccc(Cl)cc1Cl | 18% | 3 | 0.9% | -1%
COC(=O)[C@]1(C)N[C@H](c2ccc(SC3CCCCC3)cc2)[C@@H]2C(=O)N(C)C(=O)[C@@H]21 | -5% | · | -4.8% | ·
COc1ccc(NC(=S)NCc2cccn2C)cc1 | 2% | -4 | -1.4% | -8%
Cn1c(O)c(/C=C2\C=NN=C2c2ccccc2)sc1=S | -20% | 1 | -2.2% | 3%
Cc1cc(C)nc(SCC(=O)Nc2ccc(S(=O)(=O)Nc3onc(C)c3C)cc2)n1 | -1% | 1 | -1.3% | -5%
O=C1/C(=N\S(=O)(=O)c2cccs2)C([n+]2cccc(Cc3ccccc3)c2)=C([O-])c2ccccc21 | 19% | 1 | 58µM* | 2%
C=CCNC(=O)Nc1ccc(F)c(Cl)c1 | ? | -4 | -1.7% | 3%
Cc1ccc2c(c1)CC1(CN2C)C(=O)OC2(CCCCC2)OC1=O | -3% | 2 | -2.3% | -3%

Single records (already shown). Screens in order: Rango release inh	GLA inh pH 4.5	Rango complex inh	miR-21 FLuc
`Cc1cc(C)nc(SCC(=O)Nc2ccc(S(=O)(=O)Nc3onc(C)c3C)cc2)n1` across the screens: -1%	1	-1.3%	-5%
`CCOc1ccc(CNC(=O)c2ccc3nc(N4CCOCC4)sc3c2)cc1` across the screens: -6%	·	-3.8%	-9%

3 entries out of the list above, sorted by the value under Rango complex inh, descending.
Compound	Rango complex inh
O=C(O)CCCn1cc(NC(=O)COc2cc(F)ccc2[N+](=O)[O-])cn1	-0.3%
COc1ccc(NC(=S)NCc2cccn2C)cc1	-1.4%
C=CCNC(=O)Nc1ccc(F)c(Cl)c1	-1.7%

Carrying on.
SMILES | Rango release inh | GLA inh pH 4.5 | Rango complex inh | miR-21 FLuc
COc1cc(CCC(=O)OCC(N)=O)cc(OC)c1OC | -5% | -20 | 2.3% | -2%
CC(=O)c1c(C)[nH]c(C(=O)CSc2nc3ccccc3c(=O)n2CCCO)c1C | -11% | 7[21.1 µM] | -3.0% | 1%
CN1C[C@@H]2[C@@H]3C(=O)N(Cc4ccccc4)C(=O)[C@@H]3[C@](Cc3ccccc3)(C1=O)N2C(=O)c1ccc(Cl)cc1 | 26% | · | ? | ·
CCC(CC)C(=O)NC12CC3CC(CC(C3)C1)C2 | 3% | -12 | 0.4% | 1%
Cc1ccc(NC(=S)Nc2ccc3cn[nH]c3c2)c(C)c1 | 39% | -2 | 0.4% | -7%
Clc1ccc(-c2nn3c(-c4ccccn4)nnc3s2)c(Cl)c1 | · | 10 | · | -6%
CCNC(=S)N(CCc1c(C)[nH]c2ccc(OC)cc12)Cc1cccnc1 | -2% | · | 1.1% | -2%
Cn1c(CSc2nc3ccccc3s2)nnc1SCC(=O)NCCN1CCOCC1 | -4% | 4 | -0.2% | -1%
CC(c1ccccc1)C(CC(=O)O)C(=O)NC1CCCCC1 (centres undefined) | 14% | 1 | -3.0% | -2%
O=C1c2ccccc2-c2onc3ccc(NCc4ccco4)c1c23 | ? | -5 | ? | 15%
COc1cccc(CNS(=O)(=O)c2cc3c(cc2C)n(C)c(=O)c(=O)n3C)c1 | 16% | · | -0.7% | 1%&-2%
O=C(COc1ccc(F)cc1)NNC(=O)Cn1ccc(C(F)(F)F)n1 | -5% | · | -0.1% | ·
COc1ccc(N2CCN(C3CCCN(C(=O)c4cccc(C)n4)C3)CC2)cc1 (centres undefined) | 15% | · | 0.2% | -1%
CN(C)C(CNC(=O)c1ccc([N+](=O)[O-])cc1Cl)c1ccco1 (centres undefined) | -12% | · | -0.4% | -10%
Cc1nc(NC(=O)CSc2ccc(-c3nc4ccccc4[nH]3)cn2)sc1C | 17% | -6 | 0.1% | -33%
Oc1csc(Cc2nc(-c3ccc(Br)cc3)cs2)n1 | 10% | -2 | -0.2% | -57%
CC1CCC(NC(=O)COC(=O)c2ccc3ncsc3c2)CC1 (centres undefined) | 1% | · | -3.0% | ·
COc1ccc(C[C@@H]2OC3(C=CC(=O)C=C3)O[C@H]2Cc2ccc(OC)cc2)cc1 | 16% | · | -0.4% | ·
CS(=O)(=O)c1ccc2nc(NC(=O)Nc3cccc(Cl)c3)sc2c1 | 0% | -13 | -0.1% | 1%
O=C(O)c1cccc(Nc2nc(N3CCOCC3)nc(N3CCOCC3)n2)c1 | 21% | -1 | 1.7% | 2%
COC(=O)C1C(=O)c2c([nH]c(C(=O)OCCOC(C)C)c2C)CC1C (centres undefined) | 6% | -29 | 6.1% | -35%
O=C(CN1CCN(c2ccccc2)CC1)Nc1cccc(C(F)(F)F)c1 | 21% | -10 | 6.1% | -1%
CCCCN1C(=O)NC(c2cccc([N+](=O)[O-])c2)C(C(=O)OCC)=C1C (centres undefined) | 8% | · | -1.8% | ·
CC1(C)C(=O)N(c2ccccc2F)C(=O)c2ccccc21 | 7% | · | 0.3% | -2%
CC1(CCc2ccccc2)NC(=O)N(CC(=O)N2CC(=O)Nc3ccccc32)C1=O (centres undefined) | 8% | -13 | 5.3% | 0%
Cn1cnnc1SCC(=O)n1c2ccccc2c2ccccc21 | -3% | 1 | -1.2% | -4%
CN1CCN(c2ccc(NC(=O)c3ccc(Oc4ccccc4)cc3)cc2)CC1 | 3% | · | 1.8% | -14%
Cc1ccc(-n2[nH]c(C)c(C=Nc3ccc(C)cn3)c2=O)cc1 | 0% | -3 | -0.7% | -6%
Cc1c(CC(C)C)nc(N)c(C#N)c1-c1ccccc1 | -8% | -5 | -2.1% | 24%
O=C(COc1ncnc2ccccc12)c1ccc2c(c1)OCCO2 | -4% | -4 | 1.2% | -37%
NC(=O)CSc1nnc(COc2ccc3ccccc3c2)o1 | -2% | · | 0.0% | -4%
CCn1c(SCC(=O)c2cc(C)n(CC3CCCO3)c2C)nc2ccccc21 (centres undefined) | -12% | 1 | -7.1% | -47%
Cc1noc(C)c1COc1ccccc1C(=O)N1CCN(S(=O)(=O)c2ccccc2C#N)CC1 | 4% | · | -3.2% | ·
CCc1nn(CCCC(=O)N2CCC(C)CC2)c(=O)c2cc3occc3n12 | ? | · | -2.2% | -19%
c1csc(C2Nc3cccc4cccc(c34)N2)c1 | -21% | 6 | 1.1% | 1%
CN(C)C(=S)NC(=O)C(c1ccccc1)c1ccccc1 | 2% | 7 | -0.4% | -2%
O=C(c1ccc(Cl)cc1)C1CCN(C(=O)NC2CCCCC2)CC1 | -15% | -3 | 0.1% | 12%
CC(C)(C)NC(=O)COC(=O)c1ccc(S(=O)(=O)N2CCCCCC2)cc1 | -19% | -2 | 4.1% | 0%
CN(Cc1nc2ccccc2n1C)S(C)(=O)=O | 12% | 1 | -3.7% | -3%

Compound activity as filed in PubChem BioAssay.
